High-throughput results from PubChem BioAssay.
TRPML1 ag: qHTS for Agonists of the Human Mucolipin Transient Receptor Potential 1 (TRPML1). Mucolipin-1 (Homo sapiens), Q9GZU1. TRPML1-expressing cells, Ca2+ dye fluorescence, FDSS; host cell line not named in the record; reference of the full effect not given here. activation, % (concentration not given with the values). actives 0.12% (n = 410,000). AID 624414, 2012; in the data active = activation above about 50%; inconclusive = about 30% to 50%; inactive = below about 30%; also: 0% is about no effect; the text of the record puts the active cut at 80%
Target sequence (Q9GZU1 whole entry, looked up): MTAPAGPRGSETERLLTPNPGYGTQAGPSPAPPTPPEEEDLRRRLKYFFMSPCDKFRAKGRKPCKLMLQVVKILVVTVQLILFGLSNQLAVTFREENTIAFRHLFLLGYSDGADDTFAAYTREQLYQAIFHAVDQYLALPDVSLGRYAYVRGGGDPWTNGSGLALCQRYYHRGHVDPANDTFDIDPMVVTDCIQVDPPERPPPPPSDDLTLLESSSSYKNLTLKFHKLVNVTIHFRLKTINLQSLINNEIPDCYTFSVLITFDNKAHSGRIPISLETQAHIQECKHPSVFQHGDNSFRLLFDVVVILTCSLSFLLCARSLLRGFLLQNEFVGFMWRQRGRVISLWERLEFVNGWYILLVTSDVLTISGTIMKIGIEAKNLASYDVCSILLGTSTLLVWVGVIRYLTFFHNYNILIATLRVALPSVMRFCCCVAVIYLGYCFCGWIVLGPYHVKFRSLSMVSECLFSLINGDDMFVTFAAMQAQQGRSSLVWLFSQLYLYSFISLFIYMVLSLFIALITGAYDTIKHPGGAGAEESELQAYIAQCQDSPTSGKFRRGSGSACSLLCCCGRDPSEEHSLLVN
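Calcium fluorescence on an FDSS kinetic reader gave the read-out. Tet-induced TRPML1-DL cells were plated overnight, dye-loaded (Ca8 with quencher, 45-90 min, room temperature, dark), then read 110 s after compound addition, and again 110 s after 4uM final 54-4 (EC80).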
TRPML1 blocker: qHTS for Inhibitors of the Human Mucolipin Transient Receptor Potential 1 (TRPML1). TRPML1-inducible cells, Ca2+ dye fluorescence, FDSS; active compounds read low; inhibition of EC80 agonist-evoked calcium signal. actives 0.02% (n = 390,000). activity change, negative = inhibition, % (no concentration beside the values); in the data active means activity change below about -50%; inconclusive means about -30% to -50%; inactive means above about -30%;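 also: stimulus is agonist 54-4 at its EC80 concentration; % is scaled to controls: 0 for no effect and ±100 for the full control effect; compound concentration not given in the record; the text of the record puts the active cut at -80%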
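Calcium fluorescence in TRPML1-DL cells induced overnight with Tet: a 110 s read after compound pin addition, then a 110 s antagonist read after challenge with 54-4 at 4 uM final (EC80).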
Numbers without * were called inactive. This is a subset; count on the stated rates, not on these rows.

SMILES	TRPML1 ag	TRPML1 blocker
Cc1ccc(-c2cc(C(=O)N3CCN(S(=O)(=O)c4ccc(Br)cc4)CC3)[nH]n2)c(C)c1	1.5	13
CCCSc1nnc2[nH]c(=O)cc(C)n12	1.7	20
Cc1c(Cl)cccc1NC(=O)C(C)n1c(=O)cc(C)c2c(C)nn(-c3ccccc3)c21 (stereo not given)	0.3	-5
Cc1ccc2oc(=O)c3cc(C(=O)N(Cc4ccccc4)C(C)C)sc3c2c1	-0.9	-10
CCOc1ccc(NC(=O)CCc2nc3cccnc3n2Cc2ccc(OC)cc2)cc1	0.5	-17
COc1ccc(-c2onc(C)c2C)cc1S(=O)(=O)NCc1ccc(C)o1	0.8	6
COc1ccc(-c2onc(C)c2C)cc1S(=O)(=O)N1c2ccccc2CC1C (stereo not given)	1.3	51
O=C(Cn1c(=O)n(CC2CCC(C(=O)NCCc3ccccc3)CC2)c(=O)c2ccccc21)Nc1cccc(F)c1 (stereo not given)	1.6	-1
Cc1ccc(NC(=O)Cn2nc(N3CCN(c4ccccc4)CC3)ccc2=O)cc1F	4.7	6
CCn1c(=O)c2cc(C(=O)NCCc3cccc(C)c3)sc2c2ccccc21	-0.4	-6
CCCCN(C)C(=O)C1CCCN(c2ncnc3onc(C)c23)C1 (stereo not given)	1.8	19
CCOc1ccc(-n2cc(-c3ccccc3)c3c(N4CCC(C)CC4)ncnc32)cc1	-0.2	3
COc1cc(Cl)c(C)cc1Nc1nc2ccccc2n2cnnc12	0.4	-27
CCOc1ccc(CNC(=O)c2ccc3nc(C(C)C)oc3c2)cc1	0.3	-2
Cc1ccc(NC(=O)Cn2c(=O)n(CCC(=O)NCc3ccc4c(c3)OCO4)c(=O)c3sccc32)c(C)c1	0.8	13
Cc1ccc(C(=O)Nc2ccc(S(=O)(=O)N3CCC(c4nc5ccccc5s4)CC3)cc2)cc1	1.5	10
Clc1cccc(-n2ncc3c(NC4CCCCC4)ncnc32)c1	1.3	23
CCOc1ccc(-c2cccc(NS(=O)(=O)c3c(C)cc(C)cc3C)c2)nn1	1.7	6
O=S(=O)(Nc1nc2n(n1)C(c1ccc(F)cc1)C=C(c1ccc(Cl)cc1)N2)c1ccccc1 (stereo not given)	3.9	11
O=C(NCCc1csc(-c2ccc(F)cc2)n1)C(=O)Nc1ccc(Cl)cc1	-0.2	-9
O=C(COCc1cc(-c2cccs2)on1)N1CCN(c2ccc(F)cc2)CC1	0.8	1
O=C(NCCc1ccc(F)cc1)C(=O)NCC(c1ccco1)S(=O)(=O)c1cccs1 (stereo not given)	0.9	7
COc1ccccc1CNC(=O)C(CC(C)C)N1Cc2ccccc2C1=O (stereo not given)	1.8	-4
Cc1ccc(C)c(N2CCN(Cc3nnc(-c4ccc5c(c4)OCO5)o3)CC2)c1	1.1	14
CCOc1ccc(N(CC(=O)Nc2ccccc2CC)S(=O)(=O)c2c(C)noc2C)cc1	1.2	-13

Nothing new here: an excerpt of the list.
SMILES	TRPML1 ag	TRPML1 blocker
Cc1ccc(-c2cc(C(=O)N3CCN(S(=O)(=O)c4ccc(Br)cc4)CC3)[nH]n2)c(C)c1	1.5	13
CCCSc1nnc2[nH]c(=O)cc(C)n12	1.7	20
Cc1c(Cl)cccc1NC(=O)C(C)n1c(=O)cc(C)c2c(C)nn(-c3ccccc3)c21 (stereo not given)	0.3	-5
Cc1ccc2oc(=O)c3cc(C(=O)N(Cc4ccccc4)C(C)C)sc3c2c1	-0.9	-10
CCOc1ccc(NC(=O)CCc2nc3cccnc3n2Cc2ccc(OC)cc2)cc1	0.5	-17
COc1ccc(-c2onc(C)c2C)cc1S(=O)(=O)NCc1ccc(C)o1	0.8	6
COc1ccc(-c2onc(C)c2C)cc1S(=O)(=O)N1c2ccccc2CC1C (stereo not given)	1.3	51
O=C(Cn1c(=O)n(CC2CCC(C(=O)NCCc3ccccc3)CC2)c(=O)c2ccccc21)Nc1cccc(F)c1 (stereo not given)	1.6	-1
Cc1ccc(NC(=O)Cn2nc(N3CCN(c4ccccc4)CC3)ccc2=O)cc1F	4.7	6
CCn1c(=O)c2cc(C(=O)NCCc3cccc(C)c3)sc2c2ccccc21	-0.4	-6
CCCCN(C)C(=O)C1CCCN(c2ncnc3onc(C)c23)C1 (stereo not given)	1.8	19
CCOc1ccc(-n2cc(-c3ccccc3)c3c(N4CCC(C)CC4)ncnc32)cc1	-0.2	3

(listing goes on)
SMILES	TRPML1 ag	TRPML1 blocker
COCCNC(=O)C1CCC(CNS(=O)(=O)c2ccc3c(c2)CC(C)N3C(C)=O)CC1 (stereo not given)	1.4	-6
CCOc1ccc(-c2cc(C)n3nc(C(=O)Nc4ccc(C)c(C)c4)cc3n2)cc1	0.1	5
Cc1ccc(Cn2cc(CCC(=O)NC3CCCCC3)c3ccccc32)cc1	-0.3	14
COc1cccc(CN2CC34CCC(CC3S2(=O)=O)O4)c1 (stereo not given)	1.2	-7
COc1ccc2nc(NC(=O)c3nc(SCc4ccccc4F)ncc3Cl)sc2c1	-0.6	10
COc1ccc(NC(=O)Cn2c(=O)n(CCc3ccccc3)c(=O)c3c4c(sc32)CCCC4)cc1	-0.5	1
COc1cc(NC(=O)CCn2cnc3ccccc3c2=O)cc(OC)c1	-0.2	30
CCCCn1c(=N)c(S(=O)(=O)c2ccc(Cl)cc2)cc2c(=O)n3cccc(C)c3nc21	1.8	3
CCc1cccc(-n2c(=O)c3cccnc3n2CC(=O)NCc2ccccc2Cl)c1	1.3	31
COc1ccc(C2=Nn3c(nc4sc(C(=O)Nc5cccc(C)c5)c(C)c4c3=O)SC2)cc1	0.0	-15
Cc1ccc(Cl)cc1N1CCN(C(=O)Cn2ncc3c4ccccc4n(C)c3c2=O)CC1	1.3	4
COc1ccc(Cl)cc1NC(=O)CSc1nc(-c2ccccc2)c2ccccc2n1	-0.4	6
CCCCc1c(C)nc2c(-c3ccc(OC)cc3)c(C)[nH]n2c1=O	4.9	9
COc1ccc(-n2c(SCC(=O)N3CCC(C)CC3)nc3c([nH]c4ccccc43)c2=O)cc1	1.4	31
COc1ccc(NC(=O)CSC2=Nc3ccccc3C3=NC(CCC(=O)NCc4ccco4)C(=O)N23)cc1 (stereo not given)	1.5	0
COc1ccc(CNC(=O)c2ccc3c(c2)N(Cc2cccc(Cl)c2)C(=O)c2ccccc2S3)c(OC)c1	3.3	-3
CC1=C(C(=O)Nc2ccccc2)C(c2ccc(O)cc2)n2nc(SCc3ccccc3)nc2N1 (stereo not given)	0.0	16
COc1cccc(C(=O)Nc2cc(-c3ccccc3)nn2-c2ccccc2)c1	-0.3	-19
COc1cccc(-c2cn3c(n2)sc2cc(C(=O)NCCc4ccccc4)ccc23)c1	0.3	3
CCOc1cccc(NC(=O)c2sc3nc(-c4ccc(F)cc4)ccc3c2N)c1	2.7	6
CCCOc1ccc(NC(=O)CC2C(=O)N(c3cccc(OC)c3)C(=O)N2Cc2cccs2)cc1 (stereo not given)	0.7	-12
COc1ccc(CCNC(=O)CCCn2c(=O)c3ccccc3n(Cc3ccc(C)cc3)c2=O)cc1OC	-0.3	2
CCC(Sc1nnc(-c2ccc(F)cc2)c(-c2ccc(F)cc2)n1)C(=O)NC1CCCC1 (stereo not given)	0.7	-4
COc1cccc(CNC(=O)CCc2c(C)c3ccc(O)c(C)c3oc2=O)c1	-0.6	-12
CCOC(=O)c1c(C)oc2ncnc(Nc3ccc(OC)cc3OC)c12	-0.8	23
Following part.
SMILES	TRPML1 ag	TRPML1 blocker
COC(=O)CSc1nc2sc3c(c2c(=O)n1-c1ccccc1C)CC(C)(C)OC3	2.9	10
COc1ccc(-c2nc(SCC(=O)Nc3ccc4c(c3)OCCO4)c(-c3ccccc3)[nH]2)cc1	1.9	-7
Cc1cccc2c1-c1sc(C(=O)Nc3ccccc3C(N)=O)cc1CO2	-0.6	-4
COc1ccc(CNC(=O)Cn2nnc(-c3ccc(S(C)(=O)=O)cc3)n2)cc1	0.5	9
COc1ccc(Cn2c(C(=O)O)c(CNCCc3ccco3)c3ccc(OC)cc32)cc1	3.2	13
COC(=O)c1c(-c2cccs2)csc1NC(=O)COc1ccc(C(C)(C)C)cc1	-0.1	-8
CC(=O)c1ccc(N2C(=O)Nc3ccccc3S2(=O)=O)cc1	-0.8	-8
Cc1c2cnn(-c3ccccc3)c(=O)c2c(C)n1CCCC(=O)Nc1cc(F)ccc1F	-0.4	28
Cc1ccc(Sc2ccc(N3CCCC(C(=O)Nc4ccc(Br)cc4)C3)nn2)cc1 (stereo not given)	-0.6	44
CCOC(=O)c1c(NC(=O)c2cc(=O)c3cc(C)cc(C)c3o2)sc(C)c1C	1.2	19
O=C(CN1CCN(CC(=O)Nc2ccccc2F)CC1)Nc1ccc(Cl)c(C(F)(F)F)c1	0.1	-12
COc1ccc(C)cc1S(=O)(=O)Nc1cccc(-c2ccc(N3CCCC3)nn2)c1	-1.0	34
O=c1cc(-c2ccccc2)c2cc(Cl)c3c(c2o1)CN(Cc1ccccc1)CO3	0.8	3
O=C(Nc1ccc2oc(-c3ccccc3F)nc2c1)c1ccccc1Cl	2.2	-3
Cc1ccc(Cn2c(CNC(=O)c3ccccc3Br)nc3cccnc32)cc1	0.2	12
O=C(Cc1ccc(F)cc1)NCc1ccc2c(c1)CCN2C(=O)c1ccc(F)cc1	0.6	27
Cc1ccc(CSc2nc3cccnc3n2Cc2ccc(C(=O)NCc3cccs3)cc2)cc1	3.6	-1
O=C(CSc1ccccc1)NCc1ccc2c(c1)CCN2C(=O)c1ccc(Cl)cc1	3.6	-2
Cc1nn(C)c2c1c(-c1ccccc1)cc(=O)n2CC(=O)NC(C)c1ccccc1 (stereo not given)	2.4	7
Cc1cccc(CCNC(=O)CCc2c(C)nc3c4c(C)cc(C)nc4nn3c2C)c1	1.1	1
O=C(CCc1nc(-c2cccs2)no1)Nc1cccc([N+](=O)[O-])c1	0.9	1
Cc1ccc(S(=O)(=O)c2nnn3c2nc(NCc2ccc4c(c2)OCO4)c2sccc23)cc1	26	5
CCN(CC)c1ccc(NC(=O)c2cc(S(=O)(=O)N3CCc4ccccc43)cn2C)c(C)c1	0.4	1
CCOc1ccc(CCNC(=O)c2nn(C)c3c2CSc2ccc(C)cc2-3)cc1OCC	0.0	-3
CC1CCc2c(sc(NC(=O)C3c4ccccc4Oc4ccccc43)c2C(=O)OC(C)C)C1 (stereo not given)	1.5	25
Remaining list, next part
SMILES	TRPML1 ag	TRPML1 blocker
Cc1cc(C)cc(NC(=O)CCc2nnc3n(CC(C)C)c(=O)c4ccccc4n23)c1	-0.2	-17
CCc1ccc(NCc2cc3cc4c(cc3n(CC(=O)Nc3ccccc3C)c2=O)OCCO4)cc1	2.6	10
COC(=O)C1=C[C@@H](C(=O)OC)C2C3=C(C(=O)[C@@]2(C)NC(=O)c2ccccc2)[C@H](c2ccccc2)n2c(=O)n(-c4ccccc4)c(=O)n2[C@@H]3C1 (stereo not given in full)	0.1	23
O=C(NCc1ccccc1)c1cc2sccc2n1Cc1ccc(F)cc1	0.9	4
Cc1cc(NS(=O)(=O)c2ccc3oc(=O)c4ncn(C)c4c3c2)ccc1Br	0.0	5
CCOc1ccc(CNC(=O)C2CCN(C(=O)c3sccc3-n3cccc3)CC2)cc1	0.5	30
CSc1ncc(Cl)c(C(=O)Nc2cc(C(F)(F)F)ccc2Cl)n1	0.1	31
COC(=O)c1c(SC)nc2ccccc2c1OCc1ccc(Br)cc1	0.1	28
O=C(Cn1c(SCc2ccccc2F)nc2ccncc21)Nc1ccccc1C(F)(F)F	-1.1	-2
COc1ccc(-c2noc(-c3cc(C(C)C)[nH]n3)n2)cc1	0.3	-18
CN(C(=O)Cn1c(=O)n(CCCS(=O)(=O)C2CCCCC2)c(=O)c2ccccc21)c1ccccc1	-0.3	0
Cn1c(=O)c2c(-c3ccccc3)n3c(c2n(C)c1=O)C(c1ccccc1[N+](=O)[O-])Nc1ccccc1-3 (stereo not given)	-0.2	25
CCCCN(CCCC)C1=C(C(=O)c2ccccc2)N(C)S(=O)(=O)c2ccccc21	0.2	7
Cc1ccc(Cl)cc1N1CCN(C(=O)c2cnn(C)c2C2CCN(C(=O)OC(C)(C)C)CC2)CC1	0.5	-14
COc1ccc(CNC(=O)C2CCN(S(=O)(=O)c3ccc4c(ccn4C)c3)CC2)cc1	0.6	-3
COc1cc(OC)c(Nc2nc3ccc(C(=O)c4ccccc4)cc3n3c(C)nnc23)cc1Cl	0.2	31
CCCCOc1ccc(C(=O)NCc2nnnn2-c2ccc(C)c(C)c2)cc1	1.6	-3
Cc1cccc(NC(=O)CSc2ncc(-c3ccccc3)[nH]2)c1C	0.5	-2
CS(=O)(=O)N1CCC(N2CCN(Cc3ccccc3)C(=O)C2=O)CC1	-0.2	30
Cc1ccc2c(c1)C(c1ccccc1)N(C(=O)c1ccc(S(=O)(=O)N3CCCC3)cc1)CC(=O)N2 (stereo not given)	1.3	-10
Cc1cccc(C(=O)Nc2cccc(OCc3cc(=O)n4ccccc4n3)c2)c1	-0.3	29
COc1ccc(-c2noc(CSc3nnc(C)n3-c3ccc(C)cc3)n2)cc1	-0.6	-8
Cc1cccc(C(=O)Nc2sc3c(c2C(=O)NCc2ccco2)CCCC3)c1	0.1	-1

For reference, part of the list above.
SMILES	TRPML1 ag	TRPML1 blocker
COc1ccc(-c2noc(CSc3nnc(C)n3-c3ccc(C)cc3)n2)cc1	-0.6	-8
Cc1cccc(C(=O)Nc2sc3c(c2C(=O)NCc2ccco2)CCCC3)c1	0.1	-1
